Screens: PubChem, National Center for Advancing Translational Sciences (NCATS)
GLA inh pH 4.5 = blocks human alpha-galactosidase A at pH 4.5 | activity change, negative = inhibition, % at 105 µM | 230,000 tested, under 10 active | purified enzyme, 4-MU-alpha-Gal fluorescence, pH 4.5 | AID 1467 | P06280; inconclusive = small, poorly fitted or top-dose-only inhibition, or a rising curve; inactive = flat fitted curve, though single readings scatter; no compound was filed as active;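 also: 0% = full activity with enzyme and -100% = basal without enzyme; dose as in the result columns while the protocol names 77 µM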
Target sequence (P06280 whole entry, looked up): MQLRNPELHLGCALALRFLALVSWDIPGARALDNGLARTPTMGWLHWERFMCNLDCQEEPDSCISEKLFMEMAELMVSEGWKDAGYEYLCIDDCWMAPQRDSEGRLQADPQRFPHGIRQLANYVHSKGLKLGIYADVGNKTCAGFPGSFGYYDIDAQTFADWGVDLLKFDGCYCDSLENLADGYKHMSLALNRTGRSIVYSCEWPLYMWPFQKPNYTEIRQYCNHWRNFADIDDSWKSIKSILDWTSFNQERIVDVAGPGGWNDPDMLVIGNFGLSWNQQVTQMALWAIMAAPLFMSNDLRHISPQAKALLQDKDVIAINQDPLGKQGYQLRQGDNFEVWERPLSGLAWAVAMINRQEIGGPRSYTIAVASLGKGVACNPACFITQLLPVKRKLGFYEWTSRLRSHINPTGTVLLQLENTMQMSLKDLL
Rango complex inh = inhibitors of Rango-importin beta complex formation. Q14974. Rango CFP/YFP FRET sensor + importin beta, 45 min. Potency, µM (highest dose often 92.2 µM), without a hit: at the highest dose inhibition of complex formation. 340,000 tested, 0.031% active. AID 540263; active = rising FRET ratio curve, often small or poorly fitted; inconclusive = mostly compound fluorescence or quenching in the first reads; inactive = flat curves in all reads;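 also: potency is read from the fitted curve at half-maximal effect; 0% = DMSO wells and 100% = buffer wells lacking importin beta; nearly all actives have a fitted effect of over 15% in size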
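Inhibition scored from the CFP 486 nm/YFP 530 nm FRET ratio 45 min after adding 0.125 microM importin beta to 50 nM Rango biosensor preincubated 5 min with compound (room temperature, PBS with DTT, Tween-20, BSA). No-importin wells as positive control.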
miR-21 FLuc = miR-21 reporter, rising signal; Potency, µM (top dose mostly 38.3 µM), without a hit: at the top dose reporter change, positive = more light; HeLa miR-21 FLuc reporter, luciferase, 48 h; AID 2288; 340,000 tested, under 10 active; active = well fitted rising curve with a large enough effect; inconclusive = small, poorly fitted or top-dose-only effect; inactive = no such curve, though single readings can be large or run the other way;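 also: % of control where 0% means no effect; miR-21 action dims this reporter so a rising signal means less miR-21 action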
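HeLa miR-21-FLuc reporter line, endogenous miR-21; 2000 cells/well in DMEM/10% FBS; compound titration up to ~40uM final, 48 h, 37 degree Celsius; luciferase detection reagent, 15 min lysis, CCD luminescence.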
Rango dissoc inh = prevents RanGTP from dissociating the Rango-importin beta complex. O95149+P62826. AID 540253. Biochemical FRET Rango-importin beta, RanGTP-induced dissociation. Potency, µM (titrated, usually from 46.1 µM), inactives show at the top dose activity change, negative = inhibition. 340,000 tested, 0.071% active; active means falling FRET ratio curve, often poorly fitted, with flat reads before Ran was added; inconclusive means other falling curves, or compound fluorescence or quenching; inactive means flat or rising ratio curve;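 also: potency is read from the fitted curve at half-maximal effect; % of control where 0% means no effect; nearly all actives have a fitted effect of over 45% in size; -100% = wells without RanGTP and RCC1; the record marks most hits as doubtful in a second field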
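Compounds sat 5 min at room temperature with 0.1 uM Rango biosensor plus 0.25 uM importin beta, then FRET pre-read. RanGTP-RCC1 (0.6 uM Ran, 2mM GTP, 0.2 uM RCC1) added for 45 min, and the CFP/YFP post-read measured blocked complex dissociation.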
* hit, by the source's call; ? = inconclusive; / = no result given; [ ] = dose if it differs, or a comment. Some of the compounds tested, so the mix of outcomes need not match the whole.

structure	GLA inh pH 4.5	Rango complex inh	miR-21 FLuc	Rango dissoc inh
COc1cc(/C(C)=N/N2CCOCC2)cc(OC)c1OC	-2.9	-3.2%	2.9%	3.5%
Cc1cc(N/C=C/C(=O)c2ccc(Br)cc2)no1	-8.9	-5.2%	-29.5%	13.9%
COc1ccc(N2CCN(Cc3nc4ccsc4c(=O)[nH]3)CC2)cc1	-8.6	0.1%	-4.7%	0.8%
COc1cccc(C(=O)NC(=S)Nc2ccc(N(C)C)cc2)c1	-1.8	3.0%	-53.3%	-8.2%
COc1cccc(CNS(=O)(=O)c2cc3c(cc2Cl)NC(=O)CO3)c1	/	-0.4%	2.7%	0.3%
O=C(O)C1CCCCC1C(=O)Nc1ccc(OCc2ccccc2)cc1 (centres undefined)	/	?	-23.7%	9.9%
COc1ccc(C(=O)COc2ccccc2N2C(=O)C3C4C=CC(C4)C3C2=O)cc1 (centres undefined)	-7.8	-1.2%	-47.5%	-1.9%
O=C(COC(=O)c1ccc(O)cc1)Nc1cc(C(F)(F)F)ccc1N1CCOCC1	/	-4.2%	/	4.4%
COc1ccc(C2CC2/C(=N/OC(=O)c2cccs2)c2ccccc2)cc1 (centres undefined)	5.4	-2.4%	-52.6%	-15.7%
Cc1ccc(N2C(=O)N(CC(=O)Nc3ccc(C)c(C)c3[N+](=O)[O-])C(=O)C2C)cc1 (centres undefined)	5.2	0.3%	-8.0%	0.3%
Cc1csc(NC(=O)CSc2nnc(C)s2)n1	-2.6	3.8%	-6.0%	-7.4%
CC1CN(C(=S)Nc2ccccc2)N(c2ccccc2)C1 (centres undefined)	-3.4	-3.8%	-2.9%	9.4%
Cc1ccc(N2C(S)=C(C#N)C(=O)NC23CCCCC3)cc1	-11.5	2.4%	-10.4%	0.1%
O=C(NCc1cccs1)C1CCCN(S(=O)(=O)c2ccc3c(c2)OCO3)C1 (centres undefined)	2.6	-1.6%	-8.2%	2.1%
CCN(CC)S(=O)(=O)c1cc([N+](=O)[O-])ccc1NNC(=O)Nc1ccc(Cl)c(Cl)c1	-11.7	0.2%	?	5.5%
OCCN(Cc1ccccc1)Cc1ccc(F)c(F)c1	-3.0	3.6%	-2.5%	3.8%
c1csc(-c2csc3ncnc(NCCCN4CCOCC4)c23)c1	-6.8	-1.7%	17.7%	-4.5%
NS(=O)(=O)c1ccc2ccccc2c1	-0.8	3.2%	-1.7%	-10.9%
CC(=O)Nc1cccc(OCc2ccc(F)cc2)c1	2.0	1.9%	-27.5%	-2.2%
COc1ccc(/C=N/n2c(C)nc3ccccc3c2=O)cc1OC	/	0.7%	-8.4%	-5.0%
CC(C)c1ccc(NC(=O)N2CCN(S(=O)(=O)c3ccccc3)CC2)cc1	-1.7	1.5%	15.0%	-1.3%
O=C(Cc1ccc(Cl)cc1)Nc1ncccn1	3.3	-1.4%	2.0%	-6.0%
Cc1cccc(N(C(=O)CCC(=O)Nc2cc(C)on2)C(C(=O)NC2CCCC2)c2ccncc2)c1 (centres undefined)	-8.1	2.9%	-3.1%	0.6%
CCc1cc2c(=O)n(-c3ccccc3)c(=S)[nH]c2s1	-1.9	0.0%	-6.1%	-6.6%
CN(c1cccc2cccnc12)S(=O)(=O)c1ccccc1	/	0.1%	-1.2%	-3.8%
COc1ccc(-n2c(SCc3nnc(-c4ccccc4)o3)nnc2-c2ccccc2)cc1	-17.9	-0.8%	-4.3%	-10.6%
CC(C)(C)C1CCC(C(=O)NCC(c2cccs2)N2CCOCC2)CC1 (centres undefined)	/	-2.1%	-2.2%	2.0%
CN(C)c1c(F)cc(C(=O)NCc2ccccc2)cc1F	-8.0	0.0%	-35.3%	5.9%
CCC(=O)N1C(=O)C2(Nc3ccccc3N2)c2ccccc21	1.8	/	-6.1%	/
C[N+]12CCCCC1[C@@H](CO)CCC2 (some centres undefined)	2.8	-2.1%	1.3%	0.6%
CCN(CC)C(=O)CSc1nnc([C@@H](NC(=O)OC(C)(C)C)C(C)C)o1	5.0	-0.5%	-6.9%	-1.6%
Cc1cc(C)c2c(=O)[nH]n(C3CC(C)N(C)CC3C)c2n1 (centres undefined)	0.9	-2.7%	-0.2%	4.1%
COCCN(CC(=O)Nc1cccc(C)c1C)C(=O)Cc1ccsc1	/	-0.6%	/	15.8%
O=C(CCc1c[nH]c2ccccc12)N1CCN(S(=O)(=O)c2ccccc2)CC1	/	-0.4%	/	20.4%
Cc1c(/C=N\NC(=O)c2cc3ccccc3o2)c2ccccc2n1C	-5.0	?	15.5%	?
COc1ccc(N2CCN(CCNC(=O)c3c(C)cc(=O)oc3C)CC2)cc1	7.4	-0.8%	-4.5%	-11.6%
O=C(NCCN1CCCCCC1)C1CCCN1S(=O)(=O)c1cccc2nsnc12 (centres undefined)	3.3	-3.6%	-3.6%	17.5%
CCCOC(=O)c1ccc(-c2ccc(C=O)o2)cc1	-11.0	-1.8%	-44.3%	25.6%
CC(CN1CCOCC1)OC(=O)c1cccs1 (centres undefined)	3.7	4.2%	1.3%	-17.9%
CC(=O)Nc1c(C(=O)N2CCOCC2)sc2nc3c(cc12)COC(C)(C)C3	3.6	5.9%	-6.2%	-2.3%

Taken from above.
Rango complex inh with O=C(CCc1c[nH]c2ccccc12)N1CCN(S(=O)(=O)c2ccccc2)CC1 → -0.4%
GLA inh pH 4.5 with Cc1c(/C=N\NC(=O)c2cc3ccccc3o2)c2ccccc2n1C → -5.0
miR-21 FLuc with CCCOC(=O)c1ccc(-c2ccc(C=O)o2)cc1 → -44.3%

(continued)
SMILES	GLA inh pH 4.5	Rango complex inh	miR-21 FLuc	Rango dissoc inh
Cc1ccc([C@@H]2CC=C(C(=O)O)[C@H](c3ccc(F)cc3)N2S(=O)(=O)c2ccc(C)cc2)cc1	/	-5.0%	/	-1.1%
COC(=O)c1ccc(S(=O)(=O)NCc2ccc(OC)cc2)n1C	1.7	2.7%	-17.6%	19.6%
COc1ccc(OC)c(NC(=O)C2C3CC4OC(=O)C2C4C3)c1 (centres undefined)	1.2	0.0%	-5.4%	-0.1%
Cc1cccc(C(=O)N[C@H](C(=O)NCc2cccs2)C(C)C)c1	/	-2.3%	/	-4.8%
Cc1ccc(-n2ncc3c2CC(C)(C)CC3NC(=O)c2ccc[n+]([O-])c2)cc1 (centres undefined)	/	-1.0%	-2.8%	7.1%
COc1cccc(NC(=O)c2c(F)cccc2F)c1	/	1.9%	/	0.4%
COCCNc1nc(C)cc(-c2cc(C(=O)NC3CCCC3)on2)n1	-1.2	1.0%	-0.1%	-9.1%
COC(=O)NC1c2ccccc2Oc2ccc(C)cc21 (centres undefined)	/	0.7%	1.8%	7.4%
C=CCSc1nc2c(cnn2-c2ccc(C)c(C)c2)c(=O)[nH]1	-6.0	?	-1.8%	?
CN(Cc1c(C(=O)N2CCCCCCC2)nc2ccc(Cl)cn12)C1CCOC1 (centres undefined)	/	4.8%	-4.8%	-20.8%
CCn1c(=O)c2cc(C(=O)N3CCN(C)CC3)sc2c2ccccc21	0.7	-3.2%	-15.8%	-5.6%
Cn1cnnc1SCC(=O)Nc1ccccc1	-5.3	-3.8%	-4.2%	-6.1%
Cc1nnc(SCC(=O)c2ccc(Cl)cc2)s1	-4.6	5.6%	-13.1%	-11.1%
COc1ccc(-c2ccc(CCC(=O)O)n2CC(=O)Nc2cccc(OC)c2)cc1	4.5[21.1 µM]	?	-4.1%	-4.0%
Cn1ccs/c1=N\C(=O)Nc1cccc(Cl)c1	-3.1	-1.2%	-57.1%	0.6%
CCOC(=O)C(=NCCCN1CCOCC1)NNc1cccc(C(F)(F)F)c1	-14.7	1.7%	-7.7%	12.4%
C=CCNCCCCOc1ccc(OCC)cc1	2.3	-1.5%	-2.1%	-14.7%
CCc1nc(SCC(=O)O)c2c3c(sc2n1)COC(C)(C)C3	/	1.3%	0.8%	0.2%
CCNC(=O)CC1C(=O)N(c2ccc(F)cc2)C(=O)N1Cc1ccccn1 (centres undefined)	-3.0	2.4%	-5.1%	-0.4%
Cc1cc(NC(=O)COC(=O)C(Cc2ccccc2)NC(=O)c2ccco2)no1 (centres undefined)	6.3	0.9%	-1.5%	16.8%
Oc1ccc(/C=N/Nc2cccc(Cl)n2)c(O)c1	/	-2.5%	-54.4%	1.0%
Oc1cccnc1Sc1cccc(C(F)(F)F)c1	/	2.9%	/	24.6%
CC(C)(C)OC(=O)C[C@H]1C/C=C\C[C@@H](CC(=O)N[C@@H](CO)Cc2ccccc2)C(=O)N2CCC[C@H]2COC1=O	/	?	/	-10.2%
O=C(O)CCc1ccc(-c2ccccc2)o1	2.5	-3.1%	-0.4%	-4.6%
NC(=O)C1CCCN(C(=O)c2ccc(Cl)cc2)C1 (centres undefined)	-1.3	-4.1%	-3.2%	-3.3%
CN(C)c1nc(Cl)nc(N(C#N)CCOc2ccccc2)n1	-1.9	-5.8%	11.9%	0.6%
CCNC(=O)c1ccc(N(C)S(=O)(=O)c2cccs2)cc1	9.3	3.2%	-11.8%	13.7%
CN1C(=O)CC(c2ccco2)Sc2ccccc21 (centres undefined)	-4.0	1.3%	-10.6%	-2.1%
CC(Cc1ccccc1)NC(=O)CC(c1ccccc1)c1ccccc1O (centres undefined)	/	4.8%	3.1%	1.0%
NNC(=O)c1cc2cc(Oc3ccccc3)ccc2[nH]1	/	?	4.1%	16.0%
C=CCc1ccc(OCC(O)CO)c(OC)c1 (centres undefined)	-0.2	0.1%	-17.3%	14.4%
Cc1nn(C)c(C)c1NS(=O)(=O)c1ccccc1	-1.2	-0.4%	9.1%	-10.6%
COC(=O)c1ccc(N(CC(=O)NCC2CCCO2)C(=O)CCC(=O)Nc2cc(C)on2)cc1 (centres undefined)	/	-0.5%	-0.5%	-22.8%
O=C(O)CCCN1C(=O)C2C3CC(C2C1=O)C1C(c2ccccc2)c2sc(=O)n(-c4ccccc4)c2SC31 (centres undefined)	-3.8	-3.0%	1.8%	-5.1%
COC(=O)CC1(C(=O)OC)Oc2ccc(Br)cc2C(=O)N1c1cc(Cl)c(Cl)cc1Cl (centres undefined)	-9.3	-1.1%	20.1%	31.6%
CCCCN(CC)CCCNC(=O)c1ccc(CSc2nc3ccncc3[nH]2)cc1	-0.1	-2.6%	-4.9%	-4.7%
COc1ccc(Cc2nnc(NC(=O)C3CCN(C(=O)c4ccco4)CC3)s2)cc1	/	-4.1%	12.3%	-0.3%
Cc1ccc(N(CCCCN2C(=O)c3ccccc3C2=O)C(=O)c2cccc([N+](=O)[O-])c2)cc1	-5.4	3.3%	-0.4%	19.2%
c1ccc(NCC2OCc3ccccc3CO2)cc1	-2.2	0.1%	-64.9%	?
N#Cc1cc([N+](=O)[O-])ccc1NCC1CCCO1 (centres undefined)	/	-0.1%	-2.9%	-5.3%

Another view of part of the listing above:
COc1ccc(Cc2nnc(NC(=O)C3CCN(C(=O)c4ccco4)CC3)s2)cc1
  GLA inh pH 4.5 = /; Rango complex inh = -4.1%; miR-21 FLuc = 12.3%; Rango dissoc inh = -0.3%
Cc1ccc(N(CCCCN2C(=O)c3ccccc3C2=O)C(=O)c2cccc([N+](=O)[O-])c2)cc1
  GLA inh pH 4.5 = -5.4; Rango complex inh = 3.3%; miR-21 FLuc = -0.4%; Rango dissoc inh = 19.2%
COC(=O)CC1(C(=O)OC)Oc2ccc(Br)cc2C(=O)N1c1cc(Cl)c(Cl)cc1Cl (centres undefined)
  GLA inh pH 4.5 = -9.3; Rango complex inh = -1.1%; miR-21 FLuc = 20.1%; Rango dissoc inh = 31.6%
